Screens (PubChem BioAssay)
CtBP-E1A blk – qHTS Assay for Inhibitors of the CtBP/E1A Interaction. CtBP / adenovirus E1A interaction (AlphaScreen). AlphaScreen GST-E1A/His-CtBP binding, 1536-well; active compounds read low; control for the full effect not named in the record. activity change, % (test concentration not listed). 340,000 compounds, 0.49% hits. AID 651724, 2012; in the data active means activity change below about -65%; inconclusive means about -30% to -65%; inactive means above about -30%
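AlphaScreen with 125 nM GST-E1A and 125 nM His-CtBP (5X stocks) in Tris pH 8.0, 300 mM NaCl, BSA, Tween 20, TCEP. Compounds preincubated 2 h at 37 deg C, then glutathione donor/nickel acceptor beads added for 1 h at 37 deg C in dark.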
Six1-Eya2 blk – qHTS Assay for Inhibitors of the Six1/Eya2 Interaction. Homeobox protein SIX1 (Homo sapiens) + Protein phosphatase EYA2 (Homo sapiens), …. AlphaScreen GST-Six1/His-Eya2 binding, biochemical; active compounds read low; control for the full effect not named in the record. activity change, % (no concentration beside the values). 360,000 compounds, 0.56% hits; in the data active = activity change below about -65%; inconclusive = about -30% to -65%; inactive = above about -30%
Target sequence (O00167 whole entry, looked up): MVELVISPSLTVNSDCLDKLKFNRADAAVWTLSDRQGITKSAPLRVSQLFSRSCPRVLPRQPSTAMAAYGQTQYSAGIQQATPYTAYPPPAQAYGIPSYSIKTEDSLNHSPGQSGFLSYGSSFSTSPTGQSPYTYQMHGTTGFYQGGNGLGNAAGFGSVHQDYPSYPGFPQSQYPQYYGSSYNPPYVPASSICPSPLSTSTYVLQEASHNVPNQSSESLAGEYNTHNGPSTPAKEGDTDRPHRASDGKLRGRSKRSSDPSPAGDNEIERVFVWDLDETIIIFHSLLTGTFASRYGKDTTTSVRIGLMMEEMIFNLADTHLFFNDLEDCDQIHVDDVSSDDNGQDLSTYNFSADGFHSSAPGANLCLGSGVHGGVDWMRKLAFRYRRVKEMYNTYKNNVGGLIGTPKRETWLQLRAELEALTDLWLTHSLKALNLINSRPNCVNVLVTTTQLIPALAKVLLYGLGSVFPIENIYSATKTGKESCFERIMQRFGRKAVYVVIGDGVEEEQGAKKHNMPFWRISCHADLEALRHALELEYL
Target sequence (Q15475 whole entry, looked up): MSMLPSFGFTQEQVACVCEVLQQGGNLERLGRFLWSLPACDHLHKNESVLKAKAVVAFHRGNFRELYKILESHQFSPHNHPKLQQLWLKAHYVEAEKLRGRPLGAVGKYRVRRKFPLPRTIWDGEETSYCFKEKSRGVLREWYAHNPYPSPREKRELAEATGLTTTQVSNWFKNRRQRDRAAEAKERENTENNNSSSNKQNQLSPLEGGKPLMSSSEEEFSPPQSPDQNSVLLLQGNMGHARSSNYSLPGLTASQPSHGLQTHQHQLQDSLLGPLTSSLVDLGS
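Compounds are tested against tagged Six1 and Eya2 proteins bridged by glutathione donor and nickel acceptor beads; after a one-hour incubation at 37 °C without light, AlphaScreen emission is recorded.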
An asterisk follows results filed as active; & = joins results of further samples. On the % scale 0 is the no-effect control and ±100 the full control effect. Only part of the results is shown. The share of hits here may be higher or lower than overall.

Results follow in this order: Six1-Eya2 blk, CtBP-E1A blk
CCOC(=O)[C@]12CCC=C1N(Cc1ccc3c(c1)OCO3)C(=O)[C@H](CC(=O)NCCCN1CCCC1=O)C2
    -1, 9
COC(=O)C1(C(=O)OC)C[C@H](c2ccc(OC)cc2)N(Cc2ccccc2OC)[C@@H]1c1cccs1
    -8&-5, -5&-3
Cc1cc2c(cc1C)-n1nnnc1C(N1CCN(c3ncccc3C#N)CC1)C(=O)N2 (stereo not given)
    -2, 2
COC(=O)C1(C(=O)OC)C2CCCCC2N(S(=O)(=O)c2ccc(C)cc2)[C@@H]1CC(C)=O (stereo not given in full)
    6, -11
O=C(N[C@@H]1CC[C@H](CCn2cc(-c3ccccn3)nn2)O[C@@H]1CO)c1ccncc1
    -76*, -20
CCc1c(-c2ccc(Cl)cc2)ncn1Cc1cccc(-c2ccccc2)c1
    -15, -1
COc1ccc(C2=Nc3ccccc3N(C(=O)c3ccc4ncccc4c3)C2C(=O)NC2CCCC2)cc1 (stereo not given)
    -12, 0
Fc1cccc(Cc2c(C3CCCCC3)nc3c4ccccc4ccn23)c1
    5, -1
CC1OC(CCc2cccc(Cl)c2)Cc2[nH][nH]c(=O)c21 (stereo not given)
    1, -4
O=C(NC1CCCC1)C1c2ccccc2OCC(=O)N1CCc1ccccc1 (stereo not given)
    1, -14
CC(C)NC(=O)C1(C)CN(S(C)(=O)=O)CC(=O)N1Cc1cccc(C(F)(F)F)c1 (stereo not given)
    -5, -8
C#CCNC(=O)C[C@@H]1C[C@@]2(C(=O)OC)CCCCC=C2N(CCCCCCCC)C1=O
    2, 0
Cc1ccc(S(=O)(=O)Nc2ccc(Cl)cc2O)cc1
    -2, 0
C/C=C/c1cccc(-c2nc(C(=O)N3CCOCC3)cc3c2[C@@H](CCO)N(C(=O)NC(C)C)C3)c1
    9, 5
Cc1cccc(C)c1NC(=O)C1(C)CN(S(C)(=O)=O)CC(=O)N1CCc1c[nH]c2ccccc12 (stereo not given)
    -1, -20
C[C@@H](c1ccccc1)N1C[C@H](COCc2ccccc2)Oc2cc(N3CC[C@@H](O)C3)ccc2S1(=O)=O
    -17, -15
CC1(C(=O)NCc2ccccc2)CN(S(C)(=O)=O)CC(=O)N1Cc1cccc(F)c1 (stereo not given)
    0, 20
CCCCNc1c(-c2ccc(SC(C)CC)cc2)nc2ccc(Cl)cn12 (stereo not given)
    15, -16
COC(=O)[C@]12CCCCC=C1N(Cc1cccc3ccccc13)C(=O)[C@H](CC(=O)NCc1ccc(C)o1)C2
    -12, -4
c1cc(-c2cc3c(o2)CCCC3OCCN2CCOCC2)cs1 (stereo not given)
    -7, -5
Cc1cccc(C)c1-n1nnnc1C(c1ccnc2ccccc12)N1CCN(CC(=O)NC(C)C)CC1 (stereo not given)
    1, 1
CCCCCCn1cc(CN2CC(N3CCN(CCN(C)C)CC3)CS2(=O)=O)nn1 (stereo not given)
    1, 9
COC(=O)C1=CN(c2ccc(C(C)(C)C)cc2)C(N)=C(C#N)C1c1cccc([N+](=O)[O-])c1 (stereo not given)
    -16, 1
CCCCn1nnnc1C(c1ccccc1)N1CCN(C(=O)C2CCCO2)CC1 (stereo not given)
    -1, -1
CCCCCCCCN1C(=O)[C@H](CC(=O)NCc2ccc(OC)c(OC)c2)C[C@@]2(C(=O)OCC)CCC=C12
    -11, 2
Nc1[nH]c(C(=O)c2ccccc2)c(-c2ccc(Cl)cc2)c1C(=O)NCc1ccco1
    -9, -18
CCCCNC(=O)c1nc(-c2cccc(C(F)(F)F)c2)oc1-c1ccc(OC(F)(F)F)cc1
    15, 25
CCc1c(-c2ccc(Br)cc2)ncn1Cc1cccc(-c2ccccc2)c1
    -13, -11
O=C1NC[C@@H](CCCCN2C[C@H](Cc3ccc(O)cc3)N(CCc3ccc(O)cc3)C(=O)C2=O)N(CC2CCCCC2)C1=O
    -1, 1
O=C1NC[C@@H](CCCCN2CCN(Cc3ccccc3)C(=O)C2=O)N(CC2CCCCC2)C1=O
    30, -4
Cc1ccc(S(=O)(=O)N[C@H]2CCC[C@@H]2O)cc1
    7, -11
CC(C)CCN1C(=O)CSCC1(C)C(=O)NCc1ccccc1 (stereo not given)
    13, 0
Cn1cncc1C#Cc1ccc(N2C(c3ccsc3)=Cc3ccc(F)cc3C2c2c[nH]c3ccccc23)cc1 (stereo not given)
    2, 1
Cc1noc(C)c1NC(=O)N1C[C@H](O)COC[C@H]2O[C@@H](CC(=O)NCC3CCCCC3)CC[C@@H]21
    7, 3
COC(=O)[C@@]12C[C@@H](CC(=O)NCC34CC5CC(CC(C5)C3)C4)C(=O)N(Cc3ccccc3)C1=CCC(C)(C)C2
    -6, -11
COC(=O)[C@]12CCCCC=C1N(Cc1ccc3c(c1)OCO3)C(=O)[C@H](CC(=O)NCCCCc1ccccc1)C2
    -5, -19
CCCCCCCCN1C(=O)[C@H](CC(=O)NCc2cccs2)C[C@@]2(C(=O)OC)CC(C)(C)CC=C12
    -7, -1
O=C1c2ccccc2C(c2nnnn2-c2ccc3c(c2)OCCO3)N1Cc1ccc(F)cc1 (stereo not given)
    25, 0
Cc1ccc(SC[C@H](C)CN2CCC(NC(=O)OCc3ccccc3)CCC2=O)cc1 (stereo not given in full)
    -2, 0
Cc1ccc(Cc2c(C3CCCCC3)nc3c(C)cc(Br)cn23)cc1
    -1, -23
COC(=O)[C@]12CCCCC=C1N(Cc1ccco1)C(=O)[C@H](CC(=O)NCC1CCCCC1)C2
    4, -5
Cc1cc(C)n2c(Nc3c(C)cccc3C)c(CCc3ccccc3)nc2n1
    -1, -5
CCCCOCCCNC(=O)C[C@@H]1C[C@@]2(C(=O)OC)CCCCC=C2N(CCc2ccc(OC)c(OC)c2)C1=O
    0, -4
CCCCCCCCN1C(=O)[C@H](CC(=O)NCc2ccc(OC)c(OC)c2)C[C@@]2(C(=O)OCC)CCCC=C12
    -18, -12
O=C(NCc1ccccc1)C(C1CC1)n1c(=O)c(-c2cc3ccccc3[nH]2)nc2ccccc21 (stereo not given)
    70, 7
CCCCC[C@@H]1CCCCC[C@@H](O)C[C@@H](O)[C@@H](O)/C=C/C(=O)O1
    9, 2
CCCCNC(=O)C[C@@H]1C[C@@]2(C(=O)OCC)CCCC=C2N(CCC2=CCCCC2)C1=O
    -1, -5
CCCCCCCCN1C(=O)[C@H](CC(=O)NCc2cccc3ccccc23)C[C@@]2(C(=O)OC)CCCCC=C12
    0, -8
COc1cc(CC(=O)Nc2c(-c3ccccc3)[nH][nH]c2=O)cc(OC)c1
    -1, -15
COc1ccc([C@H]2CC(=O)C[C@@H](CCn3cc(C(C)C)nn3)O2)cc1
    3, 5

Later entries
Results follow in this order: Six1-Eya2 blk, CtBP-E1A blk
COc1ccc(NC(=O)C(c2ccc(C#N)cc2)n2c(=O)c(-c3cc4ccccc4[nH]3)nc3ccccc32)cc1 (stereo not given)
    23, 22
CCC(c1nnnn1-c1c(C)cccc1C)N1CCN(c2ccccn2)CC1 (stereo not given)
    -4, 8
COC(=O)c1ccc2nc(-c3ccc(C#N)cc3)c(Cc3ccsc3)n2c1
    -11, 8
O=C(NCc1ccc(F)cc1F)[C@@H]1CCCN1C(=O)[C@@H]1CCCN1C(=O)c1cccc(Cl)c1
    0, 0
COc1ccc(NC(=O)C2c3ccccc3OCC(=O)N2Cc2ccc3c(c2)OCO3)cc1 (stereo not given)
    -2, -3
Nc1ccn([C@@H]2O[C@H](C(=O)NCCCN3CCCC3=O)[C@@H](O)[C@H]2O)c(=O)n1
    1, 10
CCCCOCCCNC(=O)C[C@@H]1C[C@@]2(C(=O)OCC)CCCC=C2N(Cc2ccc3c(c2)OCO3)C1=O
    2, -20
CC(=O)N1c2ccccc2N=C(c2ccc(C(F)(F)F)cc2)C1C(=O)NC1CCCC1 (stereo not given)
    -6, 0
COc1cccc(C=C(C(C)=O)C(=O)c2ccccc2)c1
    12, -1
O=C1CCC(OCc2ccccc2)CCN1[C@H](CSc1ccccc1)Cc1ccccc1 (stereo not given in full)
    7, -2
CCOC(=O)[C@]12CCC=C1N(Cc1ccc(Cl)cc1Cl)C(=O)[C@H](CC(=O)NCc1cccs1)C2
    2, -8
C[C@@H]1COc2cc(N3CCC[C@H]3CO)ccc2S(=O)(=O)N1
    0, 2
O=C(NCc1ccccc1)C(c1ccco1)N1CCN(c2ccccc2F)CC1 (stereo not given)
    -2, 5
O=C1Nc2ccccc2-n2nnnc2C1N1CCN(c2cccc(C(F)(F)F)n2)CC1 (stereo not given)
    1, -2
CC(C)N1C(=O)c2ccccc2NC(=O)C1C(=O)NCc1cccc(C(F)(F)F)c1 (stereo not given)
    -1, 4
C[C@H](c1ccccc1)N1C[C@@H](COCc2ccccc2)Oc2cc(N3CC[C@@H](O)C3)ccc2S1(=O)=O
    -2, -9
O=C(Nc1ccc(F)cc1)C(c1cc2ccccc2o1)N1CCN(CC(=O)N2CCCC2)CC1 (stereo not given)
    -9, -1
CCCCNC(=O)C(NC(=O)c1ccc2ccccc2c1)C(=O)c1ccccc1 (stereo not given)
    -3, 8
Cc1nccn1-c1ccc(NC(=O)[C@H]2O[C@@H](n3ccc(=O)[nH]c3=O)[C@H](O)[C@@H]2O)cc1
    1, 0
CSCCC(c1nc2ccccc2[nH]1)n1c(-c2ccc3ncccc3c2)nc2ccccc21 (stereo not given)
    -13, -1
CN1CCN(C(=O)c2cc3c(c(-c4cccc(-c5cccnc5)c4)n2)[C@H](CCO)N(C(=O)CC2CC2)C3)CC1
    -1, 6
Cc1ccc(S(=O)(=O)N2[C@H](CC(=O)c3cccc4ccccc34)OC[C@@H]2C)cc1
    5, -1

In the list so far, these contain fluorine:
Results follow in this order: Six1-Eya2 blk, CtBP-E1A blk
Fc1cccc(Cc2c(C3CCCCC3)nc3c4ccccc4ccn23)c1
    5, -1
CC(C)NC(=O)C1(C)CN(S(C)(=O)=O)CC(=O)N1Cc1cccc(C(F)(F)F)c1 (stereo not given)
    -5, -8
CC1(C(=O)NCc2ccccc2)CN(S(C)(=O)=O)CC(=O)N1Cc1cccc(F)c1 (stereo not given)
    0, 20
CCCCNC(=O)c1nc(-c2cccc(C(F)(F)F)c2)oc1-c1ccc(OC(F)(F)F)cc1
    15, 25
Cn1cncc1C#Cc1ccc(N2C(c3ccsc3)=Cc3ccc(F)cc3C2c2c[nH]c3ccccc23)cc1 (stereo not given)
    2, 1
O=C1c2ccccc2C(c2nnnn2-c2ccc3c(c2)OCCO3)N1Cc1ccc(F)cc1 (stereo not given)
    25, 0
O=C(NCc1ccc(F)cc1F)[C@@H]1CCCN1C(=O)[C@@H]1CCCN1C(=O)c1cccc(Cl)c1
    0, 0
CC(=O)N1c2ccccc2N=C(c2ccc(C(F)(F)F)cc2)C1C(=O)NC1CCCC1 (stereo not given)
    -6, 0
O=C(NCc1ccccc1)C(c1ccco1)N1CCN(c2ccccc2F)CC1 (stereo not given)
    -2, 5
O=C1Nc2ccccc2-n2nnnc2C1N1CCN(c2cccc(C(F)(F)F)n2)CC1 (stereo not given)
    1, -2
CC(C)N1C(=O)c2ccccc2NC(=O)C1C(=O)NCc1cccc(C(F)(F)F)c1 (stereo not given)
    -1, 4
O=C(Nc1ccc(F)cc1)C(c1cc2ccccc2o1)N1CCN(CC(=O)N2CCCC2)CC1 (stereo not given)
    -9, -1
